Source: PubChem (ICCB-Longwood Screening Facility, Harvard Medical School)
CapD inh: blocks the Bacillus anthracis CapD enzyme | hit rate 0.23% among 140,000 | purified CapD enzyme, fluorescence intensity read-out; stronger effect = lower value; some hits fall short of the stated cut | AID 492967 | z-score (no concentration beside the values);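 active = z-score under -4 in either of two replicates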;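 also: stock transfer was 100 nL into about 40 µL; score is relative to mean and spread of the plate; one replicate is shown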
AID504770: growth inhibitors of E. coli YBA685 in a screen for V. cholerae RctB (chromosome II replication) inhibitors; AID 504770; z-score (concentration not given with the values); E. coli YBA685 rctB-dependent plasmid, OD600 growth, 3 h; stronger effect = lower value; hit rate 0.27% among 130,000;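 active = z-score under -2 on both plates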;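 also: wells of about 30 µL received 100 nL stock; score is relative to mean and SD of the test wells; the first replicate is given; strong numbers were not always called active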
Numbers without * were called inactive; nt = not tested or not shown. Some of the compounds tested; the hit share may differ from the screen's.

SMILES	CapD inh	AID504770
COc1ccc(OC)c(C2c3[nH]c4ccccc4c3CCN2C(=O)CC(C)CC(=O)O)c1 (configuration not stated)	0.88	nt
O=C(Nc1nnc(-c2ccccc2)o1)c1cc(Cl)sc1Cl	0.07	0.05
COC(=O)c1c(NC(=O)C2CC2)sc2c1CCCC2	12.3	0
CCOC(=O)N1CCN(C(=O)c2ccc(Cn3c(=S)[nH]c4cc(C(=O)OC)ccc4c3=O)cc2)CC1	-0.145	nt
O=C(N/N=C/C=C/c1ccco1)c1cccs1	nt	0.35
COc1ccc(C2=N/C(=C\c3ccc(OC(C)=O)cc3)C(=O)O2)c(Br)c1	-0.195	nt
CCOC(=O)c1cc(-c2ccnn2S(=O)(=O)c2ccc(C)cc2)on1	9.47	-0.75
Cc1cc(O)c2/c(=N\N)c(-c3csc(C)n3)coc2c1	nt	-0.25
O=C(/C=C/c1ccco1)N1CCN(Cc2nc3sc4c(c3c(=O)[nH]2)CCCC4)CC1	nt	0.2
COc1cccc2cc(C(=O)Nc3ccccc3-c3nnn(CC(=O)NC(C)(C)C)n3)c(=O)oc12	-0.315	0.15
O=C(NCCCO)c1ccc2[nH]c3ccccc3c2c1	nt	0.05
COc1ccc(Br)cc1CNC(=O)c1ccc(N2C(=O)Cn3c(cc4sccc43)C2=O)cc1	1.98	-1.15
CN(CCO)C12CC3CC(CC(C3)C1)C2	0.71	0.05
Nc1ccnn1Cc1ccco1	nt	0.25
COc1ccc(-c2nnc(NC(=O)c3cc(C)cc(C)c3)s2)c(OC)c1	2.5	2.2
COC(=O)C1C(=O)NC(SCC(=O)NCc2ccccc2)=C(C#N)C1c1ccccc1F (configuration not stated)	0.675	-1.2
CN1C(=O)/C(=C\c2ccncc2)SC1=S	0.63	0.35
O=C(CCCl)O/N=C1\C(=O)N(Cc2cccc(Cl)c2)c2ccccc21	-0.59	nt
CCC12CC3CC(NC(C)=O)(C1)CC(C(=O)O)(C3)C2 (configuration not stated)	-0.625	-0.25
Cc1ccc(SC(C)C(=O)Nc2ccccc2C#N)cc1C (configuration not stated)	nt	-0.1

Exported as a markdown table: 2 of the compounds above.
| Structure | CapD inh | AID504770 |
| --- | --- | --- |
| COc1ccc(C2=N/C(=C\c3ccc(OC(C)=O)cc3)C(=O)O2)c(Br)c1 | -0.195 | nt |
| CCOC(=O)c1cc(-c2ccnn2S(=O)(=O)c2ccc(C)cc2)on1 | 9.47 | -0.75 |

Next compounds
SMILES	CapD inh	AID504770
Clc1cccc(-n2cc(-c3ccccc3)c3c(N4CCC5(CC4)OCCO5)ncnc32)c1	0.125	nt
CC(=O)N1CCC(N(C(=O)CCC(=O)NCCc2ccccc2)C2CC2)CC1	-0.005	nt
COc1ccc(-c2noc(CNC(=O)Nc3cccc(C)c3)n2)cc1	-0.59	0.65
N#CC1=C2SCN(c3ccccc3)CN2C(=O)CC1c1ccccc1 (configuration not stated)	-2.31	0.5
Cc1ccc2nc(CC(=O)O)[nH]c2c1	nt	-0.7
CCc1cccc(CC)c1NC(=O)Cn1c(C(=O)OC(C)C)cc2c1ccn2C	nt	1.4
CNC(=O)c1ccccc1Nc1ccc(SC(F)F)cc1	nt	0.1
CCCCOc1ccc(NC(=O)CS(=O)CC(=O)Nc2ccc(OC)cc2)cc1 (configuration not stated)	nt	-0.4
O=C(OCc1cc(=O)oc2cc3c(cc12)CCC3)c1ccc(Br)o1	nt	0.6
CCNC(=O)C1CCN(c2nn3cc(-c4ccc(F)cc4)nc3s2)CC1	1.02	-0.25
COCCOc1ccc(C(F)(F)F)cc1Nc1nc2ccccc2o1	nt	-0.4
CCN(CC)C(=O)c1nc(-c2ccc(Cl)cc2)n2c1CCCCC2	0.735	-0.5
CCOC(=O)N1CCN(C(=O)COc2cccc3c2CCN(CC)C3=O)CC1	nt	-0.05
O=C(NCCOc1ccccc1)OCCc1ccccc1Cl	0.42	nt
C=CCn1c(CNC(=O)c2ccccc2)nc2ccccc21	0.115	0.9
CC1(C)c2ssc(=S)c2-c2ccccc2N1C(=O)CCC1CCCCC1	0.59	nt
CC1CCN(CC(=O)Nc2ccccc2C(F)(F)F)CC1	-0.325	1.85
O=C(Nc1ccc(-c2nnc3n2CCCCC3)cc1)c1ccccc1	nt	0.45
O=C(c1cc(-c2ccccc2)oc1-c1ccc(C(F)(F)F)cc1)N1CCN(Cc2ccccc2)CC1	12.2	nt
COc1cc(C(=O)N2c3ccccc3C(Nc3ccccc3)CC2C)cc(OC)c1OC (configuration not stated)	0.5	nt
CCOC(=O)CCc1nc(-c2ccc(Cl)cc2)no1	0.31	nt
CCN1C(=O)/C(=C/c2c(NC(C)C)nc3ccccn3c2=O)SC1=S	0.4	0.35
Oc1cc(O)c2c(c1)OC(c1ccc(O)c(O)c1)C(O)C2 (configuration not stated)	0.05	0.2
COc1ccccc1N1C(=O)C2C(C1=O)C1(C)C=CC2(C)O1 (configuration not stated)	0.465	nt
CCC(=O)N1c2ccc(C)cc2C2=C(SC(C(=O)OC)=C(C(=O)OC)C23SC(C(=O)OC)=C(C(=O)OC)S3)C1(C)C	2.09	nt
O=S(=O)(c1ccc(-c2cc(C(F)(F)F)on2)s1)N1CCc2c([nH]c3ccc(F)cc23)C1	9.85	-0.25
COc1ccc(SCc2csc(NC(C)=O)n2)cc1	nt	-1.5
NC(=O)N(CCC(=O)O)c1ccccc1	nt	-0.05
CCOC(=O)c1ccc(S(=O)(=O)Nn2cc(-c3ccccc3)[nH]c2=S)cc1	nt	-0.75
CCOC(=O)c1c(C)[nH]c(NC(=O)Nc2ccccc2Br)c1C	-0.165	0.75
Cc1cccc(N2C(=O)c3sc4nnc(-c5ccccc5)c(=O)n4c3C2=O)c1C	-0.505	nt
CCN(Cc1ccccc1)S(=O)(=O)c1nc2nc(C)c(C)c(C)n2n1	0.225	-0.65
COc1cccc(OC)c1C1=NCC(=O)Nc2c1oc1ccc(Br)cc21	12.2	0
COc1cccc(CNC(=O)C23CC4CC(CC(O)(C4)C2)C3)c1	nt	-0.45
NS(=O)(=O)c1ccc(CNC(=O)OCCCc2ccccc2)cc1	-1.08	nt
CCOC(=O)N1CCN(C(=O)c2cc3c(=O)n(C)c4ccccc4c3n2C)CC1	0.03	1.6
COc1ccc(-c2cc(=O)c3cc(OC(=O)c4ccc(OC)c(OC)c4)ccc3o2)cc1	0.17	1.45
CC(c1ccccc1)N1CC(O)=C(c2nc3ccccc3[nH]2)C1=N (configuration not stated)	0.115	-0.25
CCN(C1CCCCC1)S(=O)(=O)c1cc(F)ccc1OC	-0.35	1.25
CCN(CCOC(=O)NC1CCN(c2ccccc2)CC1)c1ccc(N=Nc2ccc([N+](=O)[O-])cc2)cc1	-0.155	nt

Some of the entries above in a different format.
| canonical_smiles | CapD inh | AID504770 |
| --- | --- | --- |
| Oc1cc(O)c2c(c1)OC(c1ccc(O)c(O)c1)C(O)C2 (configuration not stated) | 0.05 | 0.2 |
| COc1ccccc1N1C(=O)C2C(C1=O)C1(C)C=CC2(C)O1 (configuration not stated) | 0.465 | nt |
| CCC(=O)N1c2ccc(C)cc2C2=C(SC(C(=O)OC)=C(C(=O)OC)C23SC(C(=O)OC)=C(C(=O)OC)S3)C1(C)C | 2.09 | nt |
| O=S(=O)(c1ccc(-c2cc(C(F)(F)F)on2)s1)N1CCc2c([nH]c3ccc(F)cc23)C1 | 9.85 | -0.25 |
| COc1ccc(SCc2csc(NC(C)=O)n2)cc1 | nt | -1.5 |

Next structures
SMILES	CapD inh	AID504770
Cc1c(C(=O)N2CCC(C#N)CC2)sc2ncnc(N3CCN(c4ccccc4)CC3)c12	0.195	nt
O=C(NNC(=O)c1ccc(CSc2ccc(C(F)(F)F)cn2)o1)NC1CCN(Cc2ccccc2)CC1	0.085	nt
CCn1c(C)nc2cc(S(=O)(=O)N3CCOCC3)ccc21	-0.63	1.7
O=C(CCn1c(=O)[nH]c2ccccc2c1=O)N1CCCCC1	0.795	-1.3
CCN(c1ncnc2c1oc1ccccc12)C1CCCCC1	nt	2.1
CC(C)CSc1nsc2nc(=O)c(C=C3C=CC(=O)C=C3)c(N)n12	-2.14	-0.1
Cn1c(NNC(=O)C(C)(C)Oc2ccc(Cl)cc2)cc(=O)n(C)c1=O	nt	-0.55
COc1ccccc1-c1cc(C(F)(F)F)nc(S(=O)(=O)CCCC(=O)N2CCCCC2C)n1 (configuration not stated)	0.41	nt
CCCn1nc(C(=O)N2CCN(CC)CC2)c2ccccc2c1=O	nt	-0.65
O=C(NCCSCc1ccco1)Nc1cccc2ccccc12	9.07	nt
O=C(NC1CCSC1=O)C1CCCCC1 (configuration not stated)	nt	-0.15
O=C(O)C1CCC(=O)N(C2CCCCC2)C1c1ccccc1 (configuration not stated)	-0.57	-1.2
C=CCNC(=O)C(c1ccccc1)c1ccccc1	nt	1.5
CCOC(=O)C1CCC(CNC(=O)N2CCSc3ncccc32)CC1 (configuration not stated)	1.23	0.05
Cc1cc2c(n1-c1ccc(C(=O)NCC3CCCO3)cc1)CCC(C)C2 (configuration not stated)	-0.625	-0.5
O=C(OC1CCCCC1)C1CCN(S(=O)(=O)c2cccc3nsnc23)CC1	nt	-0.45
CCCCn1nnc(NC(=O)CC23CC4CC(CC(C4)C2)C3)n1	-0.29	0.3
CC(=O)Nc1ccc(-c2nc(-c3ccccc3)c3cc(NC(C)=O)ccc3n2)cc1	34.7	nt
Clc1ccc(CSc2nnc([C@@H]3CCCN3)o2)cc1	nt	-0.05
CCOc1ccccc1N1CC(c2nc3ccccc3n2CCCOc2c(C)cccc2C)CC1=O (configuration not stated)	-0.67	-0.6
N#Cc1c(F)cccc1N1CCOCC1	69.5	nt
N#Cc1cc2c(nc1SCc1ccc(Cl)cc1)CCCC2=O	-0.3	-0.8
O=C(Oc1ccc(-c2ccccc2)cc1)c1cccs1	0.105	0.3
CCOC(=O)Cn1c(/C=C/c2ccc(Cl)cc2Cl)nc2ccccc21	51.2	nt
N#Cc1c(-c2ccccc2Cl)noc1/C=C/Nc1ccc(Cl)cc1	0.3	nt
COc1ccc2nc(NC(=O)CCN3C(=O)c4ccccc4C3=O)sc2c1	0.015	nt
Cc1ccc(S(=O)(=O)CC(=O)c2cc(C)c(OC(=O)N(C)C)c(C)c2)cc1	0.045	nt
COc1ccccc1NC(=O)N(CC#N)c1ccccc1	nt	-0.25
CC(c1ncc(C(F)(F)F)cc1Cl)c1n[nH]c(=S)n1-c1ccccc1 (configuration not stated)	-0.18	nt
CCc1ccc(NC(=O)CCc2nnc3ccc(N(CC)CC)nn23)cc1	0.665	2
CC(C)NS(=O)(=O)c1cccs1	nt	-0.45
O=C(Nc1ccc(C(F)(F)F)cc1)c1csc(-c2ccncc2)n1	-0.16	-0.1
O=C(Nc1ccc(Cl)cc1)Nc1ncc2c(n1)-c1ccccc1CC2	0.155	nt
O=C(O)C(c1ccc(F)cc1)N1Cc2ccccc2C1=O (configuration not stated)	-0.02	-0.4
CSc1nnc(N2C(=O)CC(c3ccccc3)C3=C2CCCC3=O)s1 (configuration not stated)	0.11	0.45
COc1ccc(-n2c(C)cc(CNC(=O)NC3CCCC3)c2C)cc1	0.075	0.1
N#CC1=C(N=Cc2ccccc2O)CCC1	1.46	-0.15
COc1cc2c(cc1OC)CN(CC(=O)Nc1ccccc1C(=O)NC1CC1)CC2	nt	0.75
CSc1nc2c(c(-c3cccs3)c1C#N)CCCC2	-0.37	0.95
CN(C)C(=O)Nc1cc2c(=O)c3ccccc3oc2nc1C(F)(F)F	-0.32	nt

Profiles as entered above. Values in the order: CapD inh, AID504770
Profile of Cc1ccc(S(=O)(=O)CC(=O)c2cc(C)c(OC(=O)N(C)C)c(C)c2)cc1 : 0.045, nt
Profile of N#Cc1c(-c2ccccc2Cl)noc1/C=C/Nc1ccc(Cl)cc1 : 0.3, nt

Later entries:
SMILES	CapD inh	AID504770
CC(C)n1ncc2c1N=C(c1ccccc1)N(C1CC1)C21CCCCC1	nt	0.25
COc1ccc(OCC(O)CNC(C)c2ccccc2)cc1 (configuration not stated)	0.095	1.65
CCOc1cc(C2C3=C(CC(C)(C)CC3=O)N(C)C3=C2C(=O)CC(C)(C)C3)ccc1O	0.28	0.4
COc1cccc(C(=O)Nc2ccccc2SCc2cc(=O)n3c(C)csc3n2)c1	1.6	0.45
CCOC(=O)CN=C1CC(C)(C)CC2=C1Sc1ncnc(OC)c1N2	-1.05	nt
CCOCCCn1c(SCc2nc3sc(C(=O)O)c(C)c3c(=O)[nH]2)nnc1-c1ccc(Cl)cc1	nt	-0.4
COCc1cc(=O)oc2cc(OC(C)=O)c(Cl)cc12	2.4	0.75
CCCn1c2ccccc2c2cnn(CC(=O)NCCOC)c(=O)c21	46.5	-0.55
CCOC(=O)N1CCC(NS(=O)(=O)c2ccc3c(c2)C(C)(C)C(=O)N3C)CC1	-0.385	-0.9
CC(CCc1ccccc1)NC(=O)C1(c2ccccc2)CCOCC1 (configuration not stated)	-0.1	nt
CC1(C)CCCC(C)(C#CCN2CCCC(c3cccnc3)C2)O1 (configuration not stated)	0.11	-0.15
COc1cc(OC)nc(OC(Cc2cnc3ccccc3n2)c2ccc(C(F)(F)F)cc2)n1 (configuration not stated)	-0.125	nt
O=S(=O)(c1ccccc1)N1CCN(CCO)CC1	0.445	-0.05
Cc1ccc(-c2csc3ncnc(N4CCC(O)CC4)c23)cc1	-0.29	-0.45
O=C(CNS(=O)(=O)c1cccs1)NC(c1ccccc1)c1ccccc1	0.495	-1.05
Cc1cc2c(SCC(=O)NC3CCCC3)ncnc2s1	nt	0
CC1CCCN(C(=O)CN2C3CCC2CC(O)(c2cccnc2)C3)C1 (configuration not stated)	nt	-0.5
CC(=O)C1=NN(c2cccc(Cl)c2C)C2(S1)SC(c1ccccc1)(c1ccccc1)c1ccccc12 (configuration not stated)	-0.175	nt
COC(=O)c1cc2ccccc2oc1=O	25.5	0
COc1cc(CCNC(=O)OCCCc2cccnc2)cc(OC)c1	0.705	nt
COc1cccc(OC)c1C(=O)N1CCCN(Cc2ccccc2)CC1	-0.16	nt
CC1=CC(=O)CN(S(=O)(=O)c2ccc(C)cc2)C1	0.085	-0.55
Cc1cc(=O)c2c(Cl)ccc(C)c2[nH]1	0.575	nt
